TSHR ag: qHTS Assay for Agonists of the Thyroid Stimulating Hormone Receptor. AID 926, 2007. Thyrotropin receptor (Homo sapiens), P16473. HEK293-CNG-TSHR cells (CNG channel as cAMP sensor), membrane potential dye, cAMP. actives 0.48% (n = 73,000). Potency, µM (titrated, usually from 57.1 µM), inactives show top-dose activation, most hits filed as activators; active = well fitted activation curve of enough size with the parental cells flat; inconclusive = any curve in the parental cells; inactive = parental cells flat and receptor cells flat or falling; note: potency is the fitted concentration of half-maximal effect; % of control where 0% means no effect; weak receptor curves with flat parental cells got no call and are not listed
Target sequence (P16473 whole entry, looked up): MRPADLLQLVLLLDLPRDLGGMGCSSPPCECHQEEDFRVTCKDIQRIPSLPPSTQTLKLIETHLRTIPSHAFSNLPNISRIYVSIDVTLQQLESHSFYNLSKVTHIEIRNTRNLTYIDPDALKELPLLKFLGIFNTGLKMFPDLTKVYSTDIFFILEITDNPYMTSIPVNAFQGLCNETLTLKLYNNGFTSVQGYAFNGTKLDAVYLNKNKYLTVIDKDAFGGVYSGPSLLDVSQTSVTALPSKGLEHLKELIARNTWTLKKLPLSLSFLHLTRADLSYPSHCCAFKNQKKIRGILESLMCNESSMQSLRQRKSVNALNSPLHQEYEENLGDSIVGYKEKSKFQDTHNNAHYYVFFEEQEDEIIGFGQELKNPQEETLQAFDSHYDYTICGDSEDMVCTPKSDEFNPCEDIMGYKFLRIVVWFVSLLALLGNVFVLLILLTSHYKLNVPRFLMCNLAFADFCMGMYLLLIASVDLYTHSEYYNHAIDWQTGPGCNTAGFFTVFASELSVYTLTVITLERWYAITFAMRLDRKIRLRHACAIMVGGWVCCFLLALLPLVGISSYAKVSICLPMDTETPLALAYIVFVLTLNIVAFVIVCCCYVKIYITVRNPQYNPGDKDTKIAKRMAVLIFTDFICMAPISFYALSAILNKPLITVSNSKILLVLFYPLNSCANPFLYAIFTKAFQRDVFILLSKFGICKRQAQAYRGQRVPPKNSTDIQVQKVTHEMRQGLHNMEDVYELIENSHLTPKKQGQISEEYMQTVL
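HEK 293 cells stably expressing TSHR and a modified CNG channel, with CNG-only parental cells as counterscreen, were preloaded 60 min at room temperature with membrane potential dye containing 100 uM RO 20-1724. Compound exposure was 30 min, and depolarization was read as fluorescence at 590 nm.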
AID923: qHTS Assay for Allosteric/Competitive Inhibitors of Caspase-1: Spectroscopic Profiling in AFC Spectral Region; Potency, µM (top dose mostly 57.5 µM), without a hit: top-dose fluorescence increase, usual class: activators; actives 1.1% (n = 75,000); compound fluorescence, AFC spectral region (405/520 nm); almost no hit is shown here; active = well fitted activation curve with a large enough effect; inconclusive = small, poorly fitted or top-dose-only effect;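 note: potency is the fitted concentration of half-maximal effect; 0% is about no effect; scaled to a free AFC standard on each plate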
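Titrations up to 57 uM read every 20 sec for 3 min (405/520 nm) with 50 nM caspase 1 and 5 uM Ac-WEHD-AFC, pH 7.5 HEPES buffer. Fluorescence-vs-time intercept gave baseline, scaled against on-plate AFC standard.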
A647 fluor: qHTS Assay for Spectroscopic Profiling in A647 Spectral Region; Compound fluorescence, A647 channel (570/671 nm), Tris buffer; max dye-equivalent concentration, M; 59,000 tested, under 10 active; AID 592, 2007; active means above 1 µM dye equivalent; inconclusive means 0.1 to 1 µM; inactive means 0.1 µM or less;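 note: values scaled relative to a standard on each plate; highest value over a series up to 38 µM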
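Fluorescence read (570 nm ex, 671 nm em) after 15 min RT incubation of compounds in 100 mM Tris buffer, pH 8.0; values expressed as dye-equivalent concentration against a six-point A647 standard series on each plate.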
Resorufin autofl: qHTS Assay for Spectroscopic Profiling in Resorufin Spectral Region. Compound fluorescence, resorufin region 547/598 nm, buffer; stronger effect = higher value. max dye-equivalent concentration, M. actives 0.04% (n = 59,000). AID 588, 2007; active = above 10 nM dye equivalent; inconclusive = 1 to 10 nM; inactive = 1 nM or less; a few of its hits are not listed in these tables; note: highest value over a series up to 38 µM
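Read-out: intrinsic compound fluorescence at ex 547/em 598 nm after 15 min at RT in pH 8.0 Tris (100 mM). Values expressed as resorufin-equivalent concentration from per-plate standard series.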
A488 autofl: qHTS Assay for Spectroscopic Profiling in A488 Spectral Region. compound autofluorescence, A488 spectral region, dye equivalency; stronger effect = higher value. max dye equivalency, M. actives 0.1% (n = 59,000). AID 591, 2007; active = above 10 nM dye equivalent; inconclusive = 1 to 10 nM; inactive = 1 nM or less; about half of its hits are not listed in these tables;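 note: highest value over a series up to 38 µM; compound alone in buffer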
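Read-out: relative fluorescence at 480/540 nm, expressed as Alexa 488 dye-equivalent concentration from a six-point A488 standard included per plate. Conditions: 100 mM Tris, pH 8.0; 15 min incubation, room temperature.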
An asterisk follows results filed as active; i = inactive; ? = inconclusive; · = no result given; [ ] = another dose, or the depositor's remark.

Below each compound: TSHR ag, AID923, A647 fluor, Resorufin autofl, A488 autofl
CCn1ncc(C2=NOC(C(=O)Nc3ccc4c(c3)OCO4)C2)c1C (centres undefined)
    10%, -0.4%, ·, ·, ·
CCOC(=O)N1CCC2(CC1)C(C#N)=C(N)Oc1c2sc2nc(C)cc(C)c12
    38%, -1.8%, 5.7e-09, i, i
CCOC(=O)C1=C(NC#N)OC(C)=C(C)C1c1ccc(O)cc1 (centres undefined)
    12%, 1.2%, 3.6e-08, i, i
COC(=O)c1c(N)sc(C(=O)N2CCOCC2)c1C
    4%, 2.1%, 1e-09, i, i
Cc1ccc(-c2nc(C)sc2CC(=O)NCc2ccco2)cc1
    15%, 3.4%, 6.1e-09, i, i
CN(CCc1ccccn1)c1ncnc2[nH]ncc12
    -1%, 0.8%, 1e-09, i, i
Cc1ccc(-c2nc(N)n(C(=O)Cc3ccccc3)n2)cc1
    11%, 0.6%, 7e-09, i, i
O=C(O)CN1C(=O)CCS(=O)c2ccccc21 (centres undefined)
    1%, 2.8%, ·, ·, ·
O=C(Nc1cccc(F)c1)N1CCCC2(CCNCC2)C1
    3%, 1.4%, 1e-09, i, i
CC(C)(C)OC(=O)NCC(=O)NCC(=O)OCc1ccccc1
    0%[11.4 µM], -0.8%, 1e-09, i, i
Fc1cccc(CSc2ncnc3c2ncn3[C@H]2CCCS2)c1
    2%[11.4 µM], -0.5%[11.5 µM], 1e-09, i, i
O=C1CCSc2cccc3cccc(c23)N1
    0%, 0.1%, ·, ·, ·
CCC(=O)O[C@@H]1CC(=O)O[C@H](C)CC=CC=C[C@@H](O)[C@H](C)C[C@H](CC=O)[C@H](O[C@H]2O[C@H](C)[C@@H](O[C@H]3C[C@@](C)(O)[C@@H](OC(=O)CC)[C@H](C)O3)[C@H](N(C)C)[C@H]2O)[C@H]1OC
    ·, ·, 1e-09, i, i
Cc1oc2nc(SCC(=O)NC3CCCCC3)nc(N)c2c1C
    21%, 0.3%, 1.4e-08, i, i
Cc1ccc(-c2nn(C)c(=O)c3ccccc23)cc1CNC(=O)c1ccco1
    12%, 1.0%, ·, ·, ·
Oc1ccc2nc(Cc3ccccc3)[nH]c2c1
    ?, -0.5%, 3.6e-08, i, i
CCOC(=O)C1C(=O)NCC2CCCC21 (centres undefined)
    0%, -1.7%, 1.8e-08, i, i
CC1(C)CC(=O)C(C(c2ccco2)C2C(=O)CC(C)(C)CC2=O)C(=O)C1
    -14%, 0.5%, 1e-09, i, i
O=C(CN(c1ccccc1)S(=O)(=O)c1ccccc1)N1CCN(Cc2ccc3c(c2)OCO3)CC1
    17%, 1.4%, ·, ·, ·
COC(=O)c1ccc(NC(=O)CSc2nnc(CNc3ccc(OC)cc3)n2C)cc1
    -1%, -3.2%, 1e-09, i, i
O=C(NCC1COc2ccccc2O1)C1CCCN(S(=O)(=O)c2cnc[nH]2)C1 (centres undefined)
    ?, 1.1%, ·, ·, ·
CCOc1ccc(OCc2ccc(C(=O)Nc3ccc(Cl)cn3)o2)cc1
    ?, 14%, 1e-09, i, i
O=C(O)c1cccc(S(=O)(=O)NCc2cccs2)c1
    -4%, -1.1%, 4.7e-09, i, i
Cc1ccccc1CSCC(=O)NC(=O)NC(C)(C)C
    ·, -0.1%, 1e-09, i, i
Cc1cc(NC(=O)CSc2nc3ccccc3[nH]2)no1
    -7%, 1.2%, 1.4e-09, i, i
Cc1ccc(Cn2ccc(NC(=O)c3c(-c4ccccc4Cl)noc3C)n2)cc1
    9%, 2.7%, 1.3e-09, i, i
COC(=O)[C@@]1(C)C=C[C@@H](Cc2ccccc2)N1C(=O)c1ccccc1
    ?, -2.4%, ·, ·, ·
CCCS(=O)(=O)NCc1cn2c(C)csc2n1
    ?, -3.0%, ·, ·, ·
CCc1nnc(NC(=O)CSc2nnc(COc3ccccc3)n2Cc2ccccc2)s1
    1%, -1.2%, 1.9e-08, i, i
COC(=O)[C@@]1(Cc2ccccc2)[C@@H]2[C@@H](CC(=O)[C@H]2CC(=O)C(=O)N(C)C)CN1C(=O)c1ccccc1
    9%, 0.3%, ·, ·, ·

Looked up by compound from the entries so far, 2 records:
Below each compound: TSHR ag, AID923, A647 fluor, Resorufin autofl, A488 autofl
CCc1nnc(NC(=O)CSc2nnc(COc3ccccc3)n2Cc2ccccc2)s1
    1%, -1.2%, 1.9e-08, i, i
CCC(=O)O[C@@H]1CC(=O)O[C@H](C)CC=CC=C[C@@H](O)[C@H](C)C[C@H](CC=O)[C@H](O[C@H]2O[C@H](C)[C@@H](O[C@H]3C[C@@](C)(O)[C@@H](OC(=O)CC)[C@H](C)O3)[C@H](N(C)C)[C@H]2O)[C@H]1OC
    ·, ·, 1e-09, i, i

Back to the main list, repeating the two entries before the break.
Below each compound: TSHR ag, AID923, A647 fluor, Resorufin autofl, A488 autofl
CCc1nnc(NC(=O)CSc2nnc(COc3ccccc3)n2Cc2ccccc2)s1
    1%, -1.2%, 1.9e-08, i, i
COC(=O)[C@@]1(Cc2ccccc2)[C@@H]2[C@@H](CC(=O)[C@H]2CC(=O)C(=O)N(C)C)CN1C(=O)c1ccccc1
    9%, 0.3%, ·, ·, ·
Cn1nnc(NC(=O)c2ccco2)n1
    11%, 0.5%, 1.9e-08, i, i
O=C(CSc1nc2c(c(=O)n1-c1ccc(Cl)cc1)SCC2)Nc1ccc2c(c1)OCCO2
    2%, 1.8%, ·, ·, ·
COc1ccc(OC)c(C2C(C(=O)Nc3ccccc3OC)=C(C)Nc3nc(CCCO)nn32)c1 (centres undefined)
    -4%, 0.1%, ·, ·, ·
CC1Cc2ccccc2N1C(=O)CCS(=O)(=O)c1cccs1 (centres undefined)
    6%[11.4 µM], 0.7%, 1e-09, i, i
O=C1NCC(COCC2CC=CCC2)O1 (centres undefined)
    ·, ·, 2.7e-08, i, i
COC(=O)C1C(=O)N2CCCSC2=C(C#N)C1c1cccs1 (centres undefined)
    9%, -1.6%, 1e-09, i, i
O=c1[nH]n(CC2COC3(CCCCC3)O2)c(=O)c2ccccc12 (centres undefined)
    11%, 0.9%, 1e-09, i, i
O=C(O)C1CCCN(S(=O)(=O)c2ccc(Cl)s2)C1 (centres undefined)
    ?, -0.7%, ·, ·, ·
COc1ccc(C2C3=C(N=C4SCC(=O)N42)c2ccccc2CC3)cc1OC (centres undefined)
    28%, 1.1%, 1e-09, i, i
CCOC(=O)C(Cc1cc(C(C)=O)ccc1OC(C)C)C(=O)OCC
    ?, -1.3%, 3.7e-08, i, i
CC(C)CNC(=O)c1cccc(C(=O)NCC(C)C)c1
    -3%, -0.2%, 3.9e-09, i, i
Cc1ccc(-n2nnc3c(SCC(=O)N4CCN(c5ccccc5)CC4)ncnc32)cc1
    0%, -0.2%, ·, ·, ·
O=C(c1cccc(F)c1)N1CCC2(CC1)CCN(c1ncccn1)CC2
    16%, 1.0%, 1.8e-09, i, i
Nc1cc(=O)[nH]c(SCC(=O)NCC2CCCO2)n1 (centres undefined)
    -3%, -0.5%, 1e-09, i, i
C=CCn1c(SCCC#N)nnc1-c1ccncc1
    -7%, -2.3%, 3e-09, i, i
c1ccc(N2CCN(c3cnccn3)CC2)nc1
    -5%, -3.3%, 1e-09, i, i
Cc1ccc2[nH]c(-c3ccccc3)c(CN3CCN(C)CC3)c(=O)c2c1
    7%[11.4 µM], 1.1%, ·, ·, ·
COc1ccc(C2SCC(=O)N2c2c(C)n(C)n(-c3ccccc3)c2=O)c(OC)c1 (centres undefined)
    2%, -1.2%, 1e-09, i, i
N#CCCN(C(=O)COC(=O)c1ccc2c(c1)NC(=O)CS2)c1ccc2c(c1)OCCO2
    12%, -1.9%, 1.3e-08, i, i
Cc1ccc(S(=O)(=O)N(CC(=O)O)c2cccc(Cl)c2)cc1
    18%, 1.2%, ·, ·, ·
CCCCNC(=O)CS(=O)Cc1nc(-c2cccc(C)c2)oc1C (centres undefined)
    6%, -1.4%, ·, ·, ·
Cc1noc(C)c1-c1cncnc1NCc1cccnc1
    2%, -0.6%, 2.5e-08, i, i
CCC1Oc2ccccc2N(CC(=O)Nc2ccc(OC)cc2OC)C1=O (centres undefined)
    5%, -1.4%, 1.7e-09, i, i
COc1ccc(Cl)cc1C(=O)NCC(C)C
    16%, 2.0%, ·, ·, ·
CCN1C(=S)SC(=O)C1=C1C=C(C)N(CCOC)C(C)=C1
    ?, 3.5%, 1e-09, i, i
Cc1cc(C(=O)NCc2ccccc2Br)no1
    4%, -0.1%, 1e-09, i, i
COc1ccccc1NC(=O)CSc1nnnn1Cc1ccccc1
    17%, -1.4%, 2.1e-08, i, i
O=C(c1ccccc1)N1CCN(CC(O)COCC2CC=CCC2)CC1 (centres undefined)
    0%, 2.4%, 3.6e-09, i, i
Cc1cc(C)n(C/C=C/Cn2nc(C)cc2C)n1
    -9%, 2.0%, 1e-08, i, i
O=C(NCCCc1ccccc1)c1ccc(Br)o1
    6%, -1.0%, 1e-09, i, i

Other entries
Below each compound: TSHR ag, AID923, A647 fluor, Resorufin autofl, A488 autofl
O=C(CSc1nnc(-c2ccco2)n1-c1ccccc1)N1CCOCC1
    3%, 1.2%, 5.5e-09, i, i
O=C(O)Cn1nc(-c2ccccc2)c2ccccc2c1=O
    18%, -1.0%, 3.8e-08, i, i
CCOC(=O)c1nc(N)c(C(=O)OCC)[nH]1
    ·, ·, 1e-09, i, i
CCOC(=O)N1CCN(CC(=O)Nc2cc3c(cc2C(C)=O)OCO3)CC1
    -1%, -1.6%, ·, ·, ·
O=C(Nn1cnnc1)c1ccncc1
    ?, 0.3%, 1.9e-08, i, i
O=C(Nc1ccc2c(c1)CCC2)c1cnccn1
    -3%, -0.1%, 3.1e-08, i, i
Cc1ccc(S(=O)(=O)N[C@H]2COC(=O)C/C=C\[C@@H](C)[C@H](NS(=O)(=O)c3ccc(C)cc3)COC(=O)C/C=C\[C@H]2C)cc1
    -8%[11.4 µM], 0.0%[11.5 µM], ·, ·, ·
O=C(N1CCOCC1)N1CCC(NC(=O)C23CC4CC(CC(C4)C2)C3)CC1
    4%, -0.3%, 2.7e-08, i, i
COC(=O)Nc1ccc(OC)c(OC)c1
    -5%, 0.5%, 1e-09, i, i
CCC(C)(C)n1nnnc1C(c1ccccc1F)N1CCC(C(N)=O)CC1 (centres undefined)
    1%, -0.2%, 3.7e-08, i, i
Cc1ccccc1-n1c(-c2ccncc2)n[nH]c1=S
    8%, 0.0%, 7.6e-09, i, i
COC(=O)c1cc(=O)n(Cc2ccco2)c(=Nc2ccc(F)c(Cl)c2)s1
    13%, -2.7%, ·, ·, ·
COc1ccccc1Oc1c(C)oc2c(CN3CCN(CCO)CC3)c(O)ccc2c1=O
    6%, 6.5%, 1.7e-08, i, i
COC(=O)[C@H](CCSC)NC(=O)NCc1cccs1
    1%, 0.4%, 1e-08, i, i
CCc1nnc(NC(=O)C2CCCN2C(=O)Nc2ccccc2OC)s1 (centres undefined)
    0%, -2.0%, 1e-09, i, i
Cn1nc(C(=O)OCCN2C(=O)c3ccccc3C2=O)c2ccccc2c1=O
    5%, 1.1%, 3.6e-08, i, i
COC(=O)c1cc2ccsc2n1CC(=O)NCC1CCCO1 (centres undefined)
    1%[11.4 µM], 0.1%, 2e-08, i, i
CCCCCn1c(CN2CCN(C(=O)OCC)CC2)nc2c1c(=O)n(C)c(=O)n2C
    11%, 0.5%, 4.3e-08, i, i
O=C(COC(=O)C1(c2ccc(F)cc2)CCCC1)N1CCOCC1
    6%, -0.8%, 3e-09, i, i
CCCCn1c(CNC(=O)c2cccs2)nc2ccccc21
    3%, -1.3%, ·, ·, ·
Nc1ccc[n+](Cc2ccccn2)c1
    1%, 0.9%, 1e-09, i, i
CS(=O)(=O)N1CCC2(CCCN(C(=O)Nc3cccc(C#N)c3)C2)CC1
    -3%, 4.8%, 1.1e-08, i, i
Cc1nc(-c2cccc(-c3noc(C)n3)c2)no1
    -1%, 0.9%, 1e-09, i, i

Screens as filed in PubChem BioAssay.

These rows are one share of the data. The share of hits here may be higher or lower than overall.
